# Screens deposited in PubChem by National Center for Advancing Translational Sciences (NCATS).
# Rango dissoc inh: prevents RanGTP from dissociating the Rango-importin beta complex | Biochemical FRET Rango-importin beta, RanGTP-induced dissociation | Potency, µM (doses to about 46.1 µM), without a hit: at the top dose activity change, negative = inhibition | 340,000 tested, 0.071% active; active means falling FRET ratio curve, often poorly fitted, with flat reads before Ran was added; inconclusive means other falling curves, or compound fluorescence or quenching; inactive means flat or rising ratio curve;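 note: potency is the fitted concentration of half-maximal effect; % of control where 0% means no effect; nearly all actives have a fitted effect of over 45% in size; -100% = wells without RanGTP and RCC1; the record marks most hits as doubtful in a second field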
#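 Quantitative HTS using a FRET biosensor: 0.1 uM Rango, 0.25 uM importin beta, 0.6 uM Ran, 2 mM GTP, 0.2 uM RCC1 final, PBS with DTT, Tween-20 and BSA. Post-read taken 45 min after Ran addition.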
# Rango-impB inh: prevents formation of the Rango-importin beta complex | Rango CFP/YFP FRET sensor + importin beta, 45 min | Potency, µM (top dose mostly 92.2 µM), inactives show at the highest dose inhibition of complex formation | 340,000 tested, 0.031% active; active = rising FRET ratio curve, often small or poorly fitted; inconclusive = mostly compound fluorescence or quenching in the first reads; inactive = flat curves in all reads;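 note: potency is the fitted concentration of half-maximal effect; 0% = DMSO wells and 100% = buffer wells lacking importin beta; nearly all actives have a fitted effect of over 15% in size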
#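 FRET biosensor (snurportin 1 IBB flanked by EYFP and cerulean), 50 nM, with compound 5 min, then 0.125 microM importin beta in PBS, 1 mM DTT, 0.02% Tween-20, 0.1% BSA. CFP/YFP ratio read after 45 min at room temperature; pre-read flags interference.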
# miR-21 reporter: miR-21 reporter, rising signal. Potency, µM (titrated, usually from 38.3 µM), inactives show at the top dose reporter change, positive = more light. 340,000 tested, under 10 active. AID 2288. HeLa miR-21 FLuc reporter, luciferase, 48 h; active = well fitted rising curve with a large enough effect; inconclusive = small, poorly fitted or top-dose-only effect; inactive = no such curve, though single readings can be large or run the other way;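 note: % of control where 0% means no effect; miR-21 action dims this reporter so a rising signal means less miR-21 action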
#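 Luminescence from a firefly luciferase reporter carrying a miR-21 binding site downstream, stably expressed under a CMV promoter in HeLa cells that make miR-21 endogenously, reports miRNA modulation after 48 h compound exposure up to approximately 40uM final.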
# GLA inh pH 4.5: alpha-galactosidase A (human) inhibition, pH 4.5 | P06280 | purified enzyme, 4-MU-alpha-Gal fluorescence, pH 4.5 | activity change, negative = inhibition, % at 105 µM | 230,000 tested, under 10 active; inconclusive = small, poorly fitted or top-dose-only inhibition, or a rising curve; inactive = flat fitted curve, though single readings scatter; no compound was filed as active;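 note: 0% = full activity with enzyme and -100% = basal without enzyme; dose as in the result columns while the protocol names 77 µM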
# Target sequence (P06280 whole entry, looked up): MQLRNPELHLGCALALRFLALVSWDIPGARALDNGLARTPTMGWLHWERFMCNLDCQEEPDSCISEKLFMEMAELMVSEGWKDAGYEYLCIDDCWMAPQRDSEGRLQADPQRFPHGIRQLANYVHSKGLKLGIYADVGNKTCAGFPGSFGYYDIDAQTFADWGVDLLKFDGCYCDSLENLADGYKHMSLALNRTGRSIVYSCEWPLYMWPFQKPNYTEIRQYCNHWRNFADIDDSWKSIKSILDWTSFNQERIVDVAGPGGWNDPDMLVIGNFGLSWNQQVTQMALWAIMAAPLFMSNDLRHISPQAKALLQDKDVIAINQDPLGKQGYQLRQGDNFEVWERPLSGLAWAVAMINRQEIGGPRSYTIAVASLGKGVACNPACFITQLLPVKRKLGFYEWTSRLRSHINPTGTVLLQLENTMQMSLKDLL
# The depositor's hits bear a star; ? = inconclusive; / = no result given; & = joins results of further samples; [ ] = dose if it differs, or a comment. Not all compounds are listed, so the mix of outcomes need not match the whole.
SMILES,Rango dissoc inh,Rango-impB inh,miR-21 reporter,GLA inh pH 4.5
COc1ccc(Cl)cc1NC(=O)NCC1CCN(C(=O)OC(C)(C)C)CC1,-0.9%,-2.7%,2.2%,3.1
O=C(C1CCOCC1)N1CCCC(N2CCN(c3cccc(C(F)(F)F)c3)CC2)C1 (stereo not given),-5.8%,-2.7%,-0.3%,/
Cc1ccc(NC(=O)c2cc([N+](=O)[O-])ccc2N2CCOCC2)cc1S(=O)(=O)N1CCOCC1,7.5%,-2.5%,-2.5%,/
O=C(O)C1C2C=CC(O2)C1C(=O)Nc1ccccc1C(F)(F)F (stereo not given),3.4%,4.0%,1.0%,4.7
COc1ccc(C(C(=O)NC2CCCC2)N(CCC(C)C)C(=O)CCC(=O)Nc2cc(C)on2)cc1 (stereo not given),-3.1%,1.9%,5.0%,/
Cc1n[nH]c(C)c1CNCc1c(C(=O)N2CCCCCCC2)nc2ccc(Cl)cn12,14.1%,3.8%,2.5%,-0.8
C=CCN=C(NC#N)SCC(=O)c1cccc(OC)c1,0.0%,-0.6%,-33.7%,5.3
C=CCSc1nnc(-c2ccccc2NC(=O)CC)c(=O)[nH]1,8.0%,2.3%,1.4%,-2.6
O=C1CSC(c2ccccc2)N1c1nc(-c2ccc(Cl)cc2Cl)cs1 (stereo not given),4.0%,-1.2%,1.2%,-1.2
O=C(NC1CC1)C1CC(=O)N(c2ccccc2)C1 (stereo not given),-2.6%,-1.0%,0.3%,/
Nc1ccc(-c2nc3nc(N)nc(N)c3nc2-c2ccc(N)cc2)cc1,-4.4%,3.4%,5.6%,-2.3
COc1ccccc1CNC(=O)CSc1nnc2c(n1)[nH]c1ccc(F)cc12,3.9%,-0.1%,0.2%,/
CCOC(=O)Cn1c(CN2CCN(C(=O)c3ccco3)CC2)nc2c1c(=O)n(C)c(=O)n2C,20.2%,-0.9%,-1.4%,/
O=C(O)c1ccc(NC(=O)c2ccc3c(c2)C(=O)N(c2ccccc2)C3=O)cc1,7.2%,-0.5%,0.1%,/
COc1ccc(/C=N/n2c(N)nc(-c3ccccc3)c2-c2ccccc2)cc1,-7.4%,-0.1%,-19.7%,-1.9
COC(=O)N/N=C\c1ccc(OC/C=C/c2ccccc2)cc1,4.2%,0.8%,-32.5%,/
O=C(O)CN1C(=O)/C(=C\c2cccc(OCc3ccc(Cl)cc3)c2)SC1=S,0.6%,0.8%,-26.9%,/
N#Cc1c(N2CCCCC2)nc(N)c2c(N)nc(SCC(=O)O)cc12,?,?,-0.4%,3.7
CN(c1ccccc1C(=O)Nc1ccc(S(=O)(=O)N2CCCC2)cc1)S(C)(=O)=O,9.7%,-0.3%,-0.6%,0.6
COC(=O)CNC(=O)Cc1c(F)cccc1Cl,-15.2%,-6.2%,-3.0%,-2.3

# Single records (already shown). Screens in order: Rango dissoc inh	Rango-impB inh	miR-21 reporter	GLA inh pH 4.5
# `C=CCSc1nnc(-c2ccccc2NC(=O)CC)c(=O)[nH]1` in the list: 8.0%	2.3%	1.4%	-2.6
# `COc1ccccc1CNC(=O)CSc1nnc2c(n1)[nH]c1ccc(F)cc12` in the list: 3.9%	-0.1%	0.2%	/

# (list continues)
SMILES,Rango dissoc inh,Rango-impB inh,miR-21 reporter,GLA inh pH 4.5
CN(C)c1ccc(P(=O)(Nc2ccc([N+](=O)[O-])cc2)N2CCOCC2)c(NC(=O)c2cccs2)c1 (stereo not given),-2.9%,0.0%,-11.1%,-13.4
Cc1nnc(SCC(=O)NCCc2ccccc2)s1,10.2%,2.0%,2.6%,4.3
COC(=O)c1nnn(-c2nc(N3CCOCC3)nc(N3CCOCC3)n2)c1C,26.1%,-2.3%,-1.3%,-0.8
O=C(c1cccs1)N1CCN=C1SCc1cccnc1,-11.4%,0.0%,-11.0%,-0.4
CCCCN(C)CCNC(=O)c1cc2c(-c3cccc(OC)c3)nn(C)c2s1,5.5%,0.6%,-2.5%,/
O=c1[nH]c(=S)ccn1C1OC(CO)C(O)C1O (stereo not given),4.0%,4.6%,/,/
COc1ccc(-c2csc3nc(-c4ccccc4OC)oc(=O)c23)cc1,0.4%,0.9%,13.2%,1.1
COc1ccccc1N1N=C(c2ccc([N+](=O)[O-])cc2)CC1c1ccccc1 (stereo not given),23.0%,4.9%,-2.1%,/
COc1ccc(NC(=O)COC(=O)c2ccc3ccccc3n2)cc1,1.5%,-0.8%,/,/
Cc1noc(/C=C/NCc2cccnc2)c1S(=O)(=O)N(C)CC(=O)N1CCc2ccccc21,2.6%,0.7%,-2.2%,-2.1
CCN1CCN(C(CNS(=O)(=O)c2ccc(F)cc2)c2cccnc2)CC1 (stereo not given),5.5%,-2.4%,-0.6%,/
CCOC(=O)c1cnc(-c2ccccc2)nc1Oc1cccc(Cl)c1,9.2%,-2.5%,-1.7%,-13.6
CCN(CC)C(=O)c1[nH]cnc1C(=O)Nc1ccccc1,1.3%,0.0%,/,/
O=C(COC(=O)c1ccc(S(=O)(=O)N2CCOCC2)cc1)NC1CCCCCC1,-12.8%,-4.4%,-0.9%,1.8
CCOc1ccc(/C=N/N2CCN(Cc3ccccc3)CC2)cc1,-0.5%,-1.7%,-0.8%,/
Cc1cc(=O)oc2cc(OCC(=O)OCC(=O)Nc3ccccc3Br)ccc12,11.3%,-0.1%,2.4%,12.7
CC(C)c1onc(C(=O)NCCc2ccccc2)c1[N+](=O)[O-],14.5%,-2.4%,-13.9%,1.7[21.1 µM]
Cc1ccc(Nc2cc(=O)[nH]c(=O)[nH]2)cc1C,7.5%,-0.3%,0.5%&1.0%,2.3
O=C(CSc1ccccn1)N1CCN(C(=O)CSc2ccccn2)CC1,-4.4%,65.1µM*,-1.7%,3.8
O=[N+]([O-])c1cccc(C2NCC(c3ccccc3Cl)c3c2[nH]c2ccccc32)c1 (stereo not given),4.8%,1.9%,0.0%,-23.1
CCc1cccc(NC(=O)CC2SC(N3CCCC3)=NC2=O)c1 (stereo not given),-7.9%,-0.5%,/,/
Clc1cccc(Cl)c1CNC1CCCC1,16.9%,-3.9%,2.5%,2.6
COc1ccc(OC)c(NC(=O)Cn2cc(C#N)c3cc(Br)ccc32)c1,-10.7%,-0.3%,-1.9%,0.0
Cc1cc2c(c(C)c1Br)C(c1ccc3c(c1)OCO3)CC(=O)O2 (stereo not given),-4.8%,-1.6%,/,-5.9
COc1cc(/C=C/C(=O)OCC(=O)NCc2ccco2)ccc1OC(F)F,-0.8%,-2.2%,0.3%,/
Cc1ccccc1-c1ocnc1C(=O)Nc1ccccc1NC(=O)c1ccccn1,20.9%,-1.1%,1.1%,/
COc1cc([N+](=O)[O-])ccc1NC(=S)N1CCN(c2ccccn2)CC1,26.5%,-3.3%,2.6%,1.4
COc1ccc(-n2c(SCC(N)=O)nc3sc4c(c3c2=O)CCN(C)C4)cc1,-21.0%,-4.0%,5.1%,1.5
CCN(C(=O)COC(=O)c1ccc(Cl)nc1)C1CCS(=O)(=O)C1 (stereo not given),7.8%,-3.3%,0.0%,0.3
S=C(NCc1ccccc1)N1CCN(c2ccccc2)CC1,17.1%,1.9%,0.7%,1.8
CN1C(=O)c2ccc(S(=O)(=O)c3ccc(C(=O)O)cc3)cc2C1=O,0.0%,5.1%,-3.6%,3.2
CC(C)CC(NC(=O)c1ccccc1)C(=O)OCC(=O)Nc1ccc(S(N)(=O)=O)cc1 (stereo not given),?,-1.6%,1.0%,-3.7
CCc1c(C#N)sc(C(N)=O)c1CC,-2.0%,-3.1%,22.3%,6.7
CN(C)C(CNc1ccc(C(N)=O)cc1[N+](=O)[O-])c1ccccc1 (stereo not given),1.9%,0.7%,-10.3%,/
CC(=O)Nc1ccc(S(=O)(=O)NCCN2CCOCC2)cc1,-4.3%,-2.1%,-2.3%,1.6
O=C(NCc1ccncc1)C(=O)NCC1OCCCN1S(=O)(=O)c1cc(F)ccc1F (stereo not given),23.3%,3.2%,-10.7%,/
Cc1onc(-c2ccccc2)c1C(=O)N1CCC(CO)(Cc2ccccc2)CC1,-2.8%,-3.0%,-4.9%,/
CCN(CC)c1ccc(-n2cc3c(=O)n(C)c(=O)n(C)c3c2)cc1,24.5%,-2.7%,-23.9%,-0.1
CC1(C)CC(NC(=O)C2CCCCC2)CC(C)(C)N1,-24.7%,1.2%,-3.4%,/
Cc1ccccc1NC(=O)C1Cc2ccccc2C(=O)O1 (stereo not given),-8.3%,4.4%,-21.2%,0.0
Cc1nc(SCC(=O)NCCc2ccccc2)n[nH]1,16.9%,-2.0%,-2.5%,8.3
O=C(/C=C/c1ccc(Br)cc1)NC(=S)N1CCOCC1,3.5%,-2.5%,-9.2%,3.0
Cc1ccc(C(=O)N2CCN(c3ccc(NC(=O)c4cc(C)cc(C)c4)cc3)CC2)cc1,-4.1%,-0.6%,1.0%,/
COc1ccc(NC(=O)CCC(=O)OCc2ccc(Br)cc2)cc1,1.2%,-2.3%,-9.2%,4.8
CC(C)=CCC/C(C)=C/CC/C(C)=N/O,6.5%,-5.7%,-3.4%,/
CCc1ccccc1NC(=O)C1C(c2ccccc2)C1(Cl)Cl (stereo not given),4.3%,1.2%,8.9%,-4.7
O=C(Nc1ccc(Cl)c(Cl)c1)O/N=C/c1ccncc1,24.6%,1.5%,16.2%,8.6
COc1ccccc1COCC(O)CN(Cc1ccco1)Cc1ccccc1O (stereo not given),16.2%,-1.3%,-5.0%,-15.3
CN1CCN(c2ccc(Cl)cc2NC(=O)c2ccc([N+](=O)[O-])cc2)CC1,-17.4%,-4.0%,-3.8%,6.6
Cc1cc2oc(=O)cc(CN3CCC(C)CC3)c2cc1C,0.1%,0.6%,-21.1%,/
COC(=O)c1c(C)nc2ccccc2c1C(=O)O,11.3%,1.1%,1.0%,-25.9
Cc1ccc(CN2CCN(Cc3ccc(OCCO)cc3)CC2CCO)o1 (stereo not given),11.5%,0.4%,0.7%,-0.4
OCCn1c(Cl)nc2ccccc21,-4.4%,0.1%,-3.5%,1.1
O/N=C(\CN1CCCCC1)c1ccccc1,1.1%,-0.2%,-6.7%,/
CC(C)(C)C(=O)CSc1nc2c(c(-c3cccs3)c1C#N)CCC2,?,?,-4.1%,-5.5
CN(C)S(=O)(=O)c1ccc(NC(=O)C2CC(=O)N(Cc3ccccc3)C2)cc1 (stereo not given),-14.1%,0.1%,0.1%,-7.2
O=C(Cn1[nH]c(=O)c2ccccc2c1=O)N1CC=C(c2ccccc2)CC1,0.2%,-0.4%,-9.7%,-4.8
Cc1cccc(N(C(=O)CCC(=O)Nc2ccccn2)C(C(=O)NC(C)C)c2ccc(O)cc2)c1 (stereo not given),0.3%,-1.9%,-0.6%,-4.3
O=C(CCCc1ccccc1)N=C1SC2CS(=O)(=O)CC2N1c1ccccc1F (stereo not given),5.3%,-0.6%,-1.4%,/
CCOC(=O)c1ccc2[nH]c3c(c2c1)CCCC3O (stereo not given),-0.6%,2.6%,-50.1%,0.4

# Remaining list, next part
SMILES,Rango dissoc inh,Rango-impB inh,miR-21 reporter,GLA inh pH 4.5
O=C(COc1cccc2cccnc12)NCC(F)(F)F,-3.2%,-0.3%,-8.4%,2.1
Cc1ccccc1COC(=O)CN1C(=O)NC2(CCCC2)C1=O,7.5%,0.6%,/,/
Cc1ccc2nc(N3CCCCC3)c(C=O)c(=O)n2c1,/,/,-48.6%,-8.6
O=C1NCCCC2c3cc(O)c4ccccc4c3OC12N1CCCCC1 (stereo not given),/,/,?,-0.2
Cc1ccc(CSc2nnc(-c3cccc4ccccc34)o2)cc1,-14.6%,-3.2%,/,/
O=C(Cn1nnc(-c2ccccc2NC(=O)c2ccccc2F)n1)NCc1ccco1,-1.1%,-0.6%,-8.5%,8.7
CC1CCCN(CCCNC(=O)c2ccc(CS(=O)(=O)Cc3cccc(Cl)c3)o2)C1 (stereo not given),1.6%,1.1%,-1.8%,/
CCN(CC)c1ccc(C(=O)Nc2ccccc2)cc1[N+](=O)[O-],-19.9%,-0.3%,-22.3%,-6.7
O=C(Nc1nnc(C2CCCO2)s1)c1cccs1 (stereo not given),-2.3%,0.3%,-31.0%,0.8
CCC1CC(CSc2ncn[nH]2)OC1=O (stereo not given),-4.1%,3.7%,0.0%,3.2
O=C(CCc1ccccc1)NCC(c1ccco1)N1CCc2ccccc21 (stereo not given),2.3%,-3.1%,/,/
